PKD1 kinase inh = inhibitors of human PKD1 kinase, biochemical, fluorescence polarization; PKD1 kinase fluorescence polarization assay; inhibition, %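 (about 10 µM by stock and volumes)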; 0.056% of 200,000 active; AID 797, 2007;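 active = inhibition of 50% or more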;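 note: controls were vehicle for no effect and a reference inhibitor for full effect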
RGS16-Gao = modulators of RGS16 binding to Galphao, primary screen, biochemical, human proteins, multiplexed bead flow cytometry; bead-based flow cytometry RGS16-Galphao binding, fluorescence; actives lie on both sides; binding response (% of control), % at 10 µM; 0.38% of 220,000 active; AID 1441, 2008;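 active = below 25% or above 175%, edge rows of some plates excepted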;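 note: Galphao activated by GDP with aluminum fluoride before binding; 100% = wells without compound and 0% = beads without RGS; some results beyond the cut were filed as inactive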
Target sequence (O15492 whole entry, looked up): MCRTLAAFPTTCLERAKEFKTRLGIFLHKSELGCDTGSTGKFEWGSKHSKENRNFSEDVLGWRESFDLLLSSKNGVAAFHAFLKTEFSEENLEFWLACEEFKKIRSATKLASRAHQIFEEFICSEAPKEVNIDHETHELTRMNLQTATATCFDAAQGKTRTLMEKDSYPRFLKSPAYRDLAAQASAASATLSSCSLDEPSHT
Target sequence (P09471 whole entry, looked up): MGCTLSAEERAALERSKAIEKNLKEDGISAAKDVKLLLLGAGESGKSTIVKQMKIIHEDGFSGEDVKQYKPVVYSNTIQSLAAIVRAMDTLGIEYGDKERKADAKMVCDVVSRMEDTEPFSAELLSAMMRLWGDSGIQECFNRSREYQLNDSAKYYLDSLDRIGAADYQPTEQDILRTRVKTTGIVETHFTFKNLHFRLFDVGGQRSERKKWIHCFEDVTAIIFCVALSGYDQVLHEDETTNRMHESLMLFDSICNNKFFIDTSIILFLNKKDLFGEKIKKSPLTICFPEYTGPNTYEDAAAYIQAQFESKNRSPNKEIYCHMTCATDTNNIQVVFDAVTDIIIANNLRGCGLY
GALR2 agonist = GALR2 receptor agonists, primary screen, cell-based; Galanin receptor type 2 (Homo sapiens), O43603; activation, %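 (tested at 5 µM)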; GALR2-expressing cells, agonist activation read-out; 0.48% of 140,000 active; AID 803, 2007;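 active = above mean plus 3 SD of all compounds, about 5% in these data, not always enough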;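 note: 0% = vehicle buffer wells and 100% = reference agonist at full effect; tested in CHO reporter cells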
Target sequence (O43603 whole entry, looked up): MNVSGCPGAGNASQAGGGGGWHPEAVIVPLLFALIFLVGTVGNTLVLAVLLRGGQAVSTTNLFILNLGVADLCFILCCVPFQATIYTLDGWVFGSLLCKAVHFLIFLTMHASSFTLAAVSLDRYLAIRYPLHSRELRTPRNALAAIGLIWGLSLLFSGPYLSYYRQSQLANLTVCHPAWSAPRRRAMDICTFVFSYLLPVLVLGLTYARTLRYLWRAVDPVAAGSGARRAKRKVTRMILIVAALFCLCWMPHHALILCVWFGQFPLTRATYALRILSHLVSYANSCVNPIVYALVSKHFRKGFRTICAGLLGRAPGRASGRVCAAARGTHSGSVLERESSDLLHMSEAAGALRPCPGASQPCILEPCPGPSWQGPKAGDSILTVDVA
HSV replic up = enhancers of HSV replication in host cells, fold increase, host cell viability. 0.005% of 220,000 active. maximum fold increase. HSV replication augmentation in cells. AID 1956, 2009;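 active = peak rise of 1.5-fold or more in the series; tested in PC3 cells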;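 note: first round at 10 µM; read as green reporter fluorescence; hits show the peak of a series up to 25 µM; 1 = signal of infected wells without compound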
Insulin prom inh = inhibitors of insulin promoter-driven GFP, primary screen, imaging, TRM-6 cells (human fetal islet line), eGFP reporter, cell count | inhibition, % at 2 µM | 0.9% of 130,000 active | AID 1273, 2008 | reporter expression induced with tamoxifen;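 active = inhibition above the mean plus 3 SD, with well images judged a real hit on visual review, cut at about 60% in these data, passing the limit was not always enough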
Insulin prom inh cell count = recorded beside Insulin prom inh, whose call it bears; normalized cell count, %; measured here: cell count, toxicity; reference of the scale not given here;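 cells exposed to compound for 48 h; stained nuclei by imaging scaled within each plate; lower means fewer cells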
HSV replic up primary fold = second read-out of HSV replic up, no call of its own (marks repeat the call); fold increase; compound at 10 µM; measured here: primary screen fold increase 10 uM; tested in PC3 cells;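 GFP signal in the first replicate; 1 = infected wells without compound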
Starred values were filed as active, the others as inactive; i = inactive; . = no result given.

SMILES | PKD1 kinase inh | RGS16-Gao | GALR2 agonist | HSV replic up | HSV replic up primary fold | Insulin prom inh | Insulin prom inh cell count
CCOC(=O)C1=C(C)NC2=C(C(=O)CC(C)(C)C2)C1c1coc2ccccc2c1=O (centres undefined) | 0.7 | 122.0 | -0.5 | i | 0.89 | -447.1 | 42.5
CCc1c(C)sc(NC(NC(C)=O)(C(=O)OC)C(F)(F)F)c1C#N (centres undefined) | -4.5 | 70.0 | 0.0 | i | 1.01 | 20.0 | 49.0
Clc1ccc(C2[C@H]3CN(Cc4ccc(-c5ccccc5)cc4)[C@H](c4ccccc4)C34CC2(c2cccnc2)C4)cn1 (some centres undefined) | . | 108.3 | . | i | 0.98 | . | .
Cc1ccc(-c2csc(N(Cc3ccco3)C(=O)c3cccs3)n2)cc1 | -10.3 | 101.5 | -2.2 | i | 1.04 | 21.6 | 91.5
O=C(NC1CC1)C1CCN(C2CCN(C(=O)c3ccc4cccc(F)c4n3)CC2)CC1 | 5.5 | 97.5 | . | i | 1.36 | -27.8 | 110.6
CC(C)Oc1ccccc1C1CC(=O)Nc2c1c(=O)n(C)c(=O)n2C (centres undefined) | 6.0 | 101.4 | -0.6 | . | . | . | .
CC(NC(=O)c1ccc(OC2CCN(C(=O)c3cccnc3)CC2)cc1)C1CC1 (centres undefined) | -1.4 | 103.1 | . | i | 0.97 | 28.6 | 117.7
Cc1nnc(C)n1/N=C/c1cccc([N+](=O)[O-])c1 | -4.0 | 102.8 | . | i | 1.03 | . | .
Cc1ccsc1/C=C/c1ccc2ccccc2n1 | -4.9 | 100.8 | -1.3 | . | . | 38.7 | 81.9
Cc1cc(C)cc(N(CC(=O)NCCSCc2ccco2)S(C)(=O)=O)c1 | -3.0 | 108.2 | . | i | 1.06 | . | .
Clc1ccc(-c2c[n+]3c(n2-c2ccccc2)SCC3)cc1 | 4.8 | 103.5 | . | i | 1.09 | . | .
Oc1ccc2ccccc2c1CNc1cnc2ccccc2c1 | 1.3 | 99.8 | -0.9 | i | 0.88 | . | .
CCOc1ccccc1-c1nc(-c2cccc(Br)c2)no1 | 3.8 | 99.8 | -0.3 | i | 0.89 | -25.0 | 66.4
CCC(=O)Nc1ccc2c(c1)ncn2-c1ccccc1OC | -15.8 | 101.2 | -0.4 | i | 0.87 | . | .
CC(=O)N1CCN(c2ccc(Oc3nnnn3-c3ccccc3)cc2)CC1 | -9.3 | 104.2 | -1.9 | i | 0.84 | . | .
O=C(Nc1ccc2c(c1)CCC2)c1ccccc1 | -0.6 | 99.6 | -0.7 | i | 0.96 | . | .
CC(C)(c1ccccc1)c1ccc(OCCN)cc1 | 0.8 | 104.4 | . | i | 0.85 | 60.0 | 118.3
O=C(NCc1ccc(F)cc1Cl)C1CCN(S(=O)(=O)N2CCC3(CC2)OCCO3)CC1 | -1.9 | 102.3 | 0.2 | i | 0.94 | -59.4 | 71.8
Cc1nc2cc(-c3ccc(Cl)cc3)nn2c(NCCN(C)C)c1C | 1.5 | 99.0 | . | i | 0.66 | -5.0 | 138.9
CC(=O)N1CCN(c2ccccc2NC(=O)COc2ccccc2C)CC1 | 2.7 | 103.3 | . | i | 1.02 | -126.7 | 86.0
O=C(Nc1ccc(-c2nnc(-c3ccccc3)o2)cc1)C(F)(F)F | 2.2 | 102.1 | 0.2 | . | . | . | .
COc1ccc(C(=O)COC(=O)CCc2nc3ccccc3[nH]c2=O)cc1Br | -6.9 | 103.3 | . | i | 1.01 | . | .
CCCN1C(=O)CSC1=Nc1ccccc1 | -3.9 | 102.3 | . | i | 0.97 | . | .
CC(C)OC(=O)NCCOC(=O)Nc1ccccc1Cl | 2.5 | 101.5 | . | i | 1.07 | . | .
CCOc1ccc(NC(=O)c2sc(NC(C)=O)c(C(=O)OC)c2C)cc1 | 1.6 | 106.9 | . | i | 1.03 | . | .
Cc1ccc(C)c(NC(=O)CN(C)C(=O)Cc2ccccc2)c1 | -8.1 | 103.3 | 0.6 | i | 1.07 | . | .
C=CCn1c(-c2ccc(Cl)cc2)cnc1SC(C)C(N)=O (centres undefined) | 0.1 | 100.8 | . | i | 1.07 | . | .
O=C(CSc1nc2ccccc2o1)N1CCN(C(=O)c2ccco2)CC1 | -5.1 | 96.6 | 0.0 | i | 1.03 | 42.9 | 82.3
Cn1c(C(=O)NCC2CCCO2)cc2oc3ccccc3c21 (centres undefined) | -10.0 | 105.8 | -1.4 | i | 0.93 | -15.4 | 114.1
O=C1CN(CC(=O)N2CCOCC2)c2ccccc2O1 | 14.2 | 73.2 | -2.2 | i | 0.79 | . | .
COc1ccc(-n2c(SCC(=O)c3c(N)n(C)c(=O)n(C)c3=O)nc3ccccc32)cc1 | 4.6 | 103.2 | 0.5 | i | 1.07 | 2.6 | 102.3
CC(C)OC(=O)CSc1nnc2c3ccccc3n(C)c2n1 | -11.8 | 101.0 | . | i | 0.98 | . | .
CCCc1ccc(-c2ccc(C(=O)O)cc2)nc1 | 2.3 | 73.9 | -1.0 | i | 1.13 | -57.7 | 89.5
CN1C(=O)NC(c2ccc(O)cc2)C2=C1CN(c1ccc(O)cc1)C2=O (centres undefined) | -1.7 | 96.6 | . | i | 0.91 | . | .
Cc1onc(-c2ccccc2)c1C(=O)Nc1nc2c(s1)CCCC2 | 1.2 | 136.4 | -1.1 | i | 0.81 | 2.9 | 83.0
COc1ccc(CN2CSC(=S)N(Cc3ccc(OC)cc3)C2)cc1 | . | 105.2 | . | i | 0.93 | . | .
O=C(CCSCCc1ccccn1)Nc1ccc(Cl)cn1 | -2.4 | 95.6 | 10.9 | i | 0.96 | -46.9 | 53.8
O=C(OCCN=C1NS(=O)(=O)c2ccccc21)C1CC(=O)N(c2ccc3ccccc3c2)C1 (centres undefined) | 2.2 | 101.4 | -1.8 | i | 0.88 | 15.5 | 122.2
Cn1cc(Br)c(C(=O)NNC(=O)c2ccc(Cl)cc2)n1 | -9.3 | 101.4 | -0.4 | i | 0.89 | -7.4 | 78.7
C(=N\Nc1nc(N2CCOCC2)nc(N2CCOCC2)n1)/c1ccco1 | -3.5 | 187.1 | . | i | 1.01 | -17.1 | 80.9

Already shown: an excerpt of the list.
SMILES | PKD1 kinase inh | RGS16-Gao | GALR2 agonist | HSV replic up | HSV replic up primary fold | Insulin prom inh | Insulin prom inh cell count
Cn1cc(Br)c(C(=O)NNC(=O)c2ccc(Cl)cc2)n1 | -9.3 | 101.4 | -0.4 | i | 0.89 | -7.4 | 78.7
C(=N\Nc1nc(N2CCOCC2)nc(N2CCOCC2)n1)/c1ccco1 | -3.5 | 187.1 | . | i | 1.01 | -17.1 | 80.9

Continued:
SMILES | PKD1 kinase inh | RGS16-Gao | GALR2 agonist | HSV replic up | HSV replic up primary fold | Insulin prom inh | Insulin prom inh cell count
O=[N+]([O-])c1cccc(-c2csc(Nc3ccccc3)n2)c1 | 6.3 | 105.5 | . | i | 0.89 | . | .
Cc1csc(NC(=O)CSc2nnc3ncccn23)n1 | 3.0 | 106.6 | -1.2 | i | 0.88 | . | .
CC(C)C(C)(C#N)NC(=O)CSc1nnc(C(F)(F)F)n1C (centres undefined) | 2.0 | 101.5 | -0.7 | i | 0.95 | -10.8 | 108.0
Cn1cnnc1SCc1ccc(C(=O)N/N=C/c2cccs2)cc1 | 8.1 | 106.2 | . | i | 0.97 | . | .
COC(=O)c1ccc(C2C(Oc3ccccc3)C(=O)N2CCc2ccc(OC)c(OC)c2)cc1 (centres undefined) | -12.4 | 101.5 | -2.0 | i | 1.12 | . | .
Cc1ccc(C)c2[nH]c(=O)c(CN(Cc3ccco3)C(=O)Nc3ccccc3)cc12 | -3.5 | 100.2 | -1.9 | i | 0.8 | . | .
O=C(NCCC1=CCCCC1)C1COc2ccccc2O1 (centres undefined) | -0.3 | 96.3 | -2.5 | i | 0.91 | -74.1 | 111.2
O=C(/C=C/Nc1ccc(Cc2ccc(N/C=C/C(=O)C(F)(F)F)cc2)cc1)C(F)(F)F | 5.3 | 94.7 | -0.6 | i | 1.14 | . | .
CCOC(=O)N1CCN(C(=O)CN(c2cc(C(F)(F)F)ccc2Cl)S(C)(=O)=O)CC1 | -6.1 | 107.7 | -2.7 | i | 0.91 | -58.1 | 104.2
C=CCN1C(=O)C(CC(=O)O)SC1=Nc1ccc(C(=O)O)cc1 (centres undefined) | -5.3 | 104.0 | . | i | 0.99 | . | .
CSc1c(-c2ccccn2)c(N)nn1C(=O)C1CC1 | . | 95.6 | . | i | 0.92 | . | .
O=c1[nH]c2ccccc2c(O)c1-c1ccccc1 | . | 115.8 | . | i | 0.83 | . | .
Cc1ccc(-c2nnnn2C2C/C(=N\NC(N)=S)C3OCC2O3)cc1 (centres undefined) | -0.8 | 111.6 | . | i | 0.96 | 25.0 | 51.1
Nc1nc2c(Cl)cc(Cl)cc2s1 | -1.9 | 84.4 | . | i | 0.97 | -92.3 | 95.7
CCCNC(=O)COC(=O)c1ccc(OCC(=O)Nc2ccccc2OC)c(OC)c1 | -9.4 | 98.8 | -1.2 | i | 0.99 | . | .
CC(=O)Nc1ccc(NC(=O)C2CCN(C(=O)c3ccc([N+](=O)[O-])cc3)CC2)cc1 | 10.6 | 100.7 | . | i | 0.88 | . | .
c1ccc(-c2csc3ncnc(NCCN4CCOCC4)c23)cc1 | -15.5 | 106.3 | -0.5 | i | 0.91 | 81.2* | 87.2*
CC(C)NS(=O)(=O)c1ccc(Oc2ncc(C(F)(F)F)cc2Cl)cc1 | -6.9 | 108.3 | -0.7 | i | 0.96 | 0.0 | 119.0
COc1ccc(S(=O)(=O)N(C)CC(=O)NCCC2=CCCCC2)cc1 | -18.2 | 103.5 | -4.6 | i | 0.913 | . | .
Cc1cc(C)n(-c2nc3ccccc3c(=O)n2OCC(=O)OCc2ccccc2)n1 | -12.7 | 109.9 | -1.4 | . | . | 39.4 | 90.9
Cc1nn(C)cc1C(N)=O | -16.4 | 106.8 | 0.5 | i | 0.92 | -56.2 | 100.4
O=C1OC(/C=C/c2ccccc2)=NC/1=C\c1cccnc1 | 3.6 | 102.1 | . | i | 0.96 | 6.2 | 126.1
Cc1cccc(Sc2nc(-c3ccccc3)ccc2C#N)c1 | -20.9 | 98.9 | -1.4 | i | 0.9 | . | .
COc1cc2c(cc1NC(=O)C(C)OC(=O)c1ccc(S(=O)(=O)Nc3ccccc3Cl)cc1)oc1ccccc12 (centres undefined) | -8.6 | 102.6 | . | i | 1 | . | .
Cc1ccc(CSCc2ccc(C(=O)NC3CCCC3)o2)cc1 | -9.0 | 101.3 | . | i | 0.94 | -20.0 | 85.0
O=C(Nc1ccc2c(c1)OCO2)c1cccc2c1C(=O)N(C1CCCCC1)C2 | 10.5 | 103.9 | . | i | 0.92 | -27.8 | 58.5
O=C(Cn1nc(-c2ccccc2)c2ccccc2c1=O)Nc1ccc2c(c1)nc1n2CCOC1 | -5.5 | 111.9 | -1.2 | i | 0.96 | . | .
CCN(CC)S(=O)(=O)c1ccc(/C=C/C(=O)OCC(=O)c2c(N)n(C)c(=O)n(C)c2=O)cc1 | 5.1 | 97.3 | . | i | 1.01 | . | .
Clc1ccc(OCc2noc(-c3ccsc3)n2)c(Cl)c1 | . | 103.7 | . | i | 0.99 | . | .
Cc1ccc(S(=O)(=O)N2CCOCC2)cc1NC(=O)COc1ccc(-c2nnco2)cc1 | 1.4 | 99.7 | . | i | 1.11 | 14.3 | 124.0

Entries above that have an aryl thioether with sulfur outside any ring, in the order listed:
SMILES | PKD1 kinase inh | RGS16-Gao | GALR2 agonist | HSV replic up | HSV replic up primary fold | Insulin prom inh | Insulin prom inh cell count
C=CCn1c(-c2ccc(Cl)cc2)cnc1SC(C)C(N)=O (centres undefined) | 0.1 | 100.8 | . | i | 1.07 | . | .
O=C(CSc1nc2ccccc2o1)N1CCN(C(=O)c2ccco2)CC1 | -5.1 | 96.6 | 0.0 | i | 1.03 | 42.9 | 82.3
COc1ccc(-n2c(SCC(=O)c3c(N)n(C)c(=O)n(C)c3=O)nc3ccccc32)cc1 | 4.6 | 103.2 | 0.5 | i | 1.07 | 2.6 | 102.3
CC(C)OC(=O)CSc1nnc2c3ccccc3n(C)c2n1 | -11.8 | 101.0 | . | i | 0.98 | . | .
Cc1csc(NC(=O)CSc2nnc3ncccn23)n1 | 3.0 | 106.6 | -1.2 | i | 0.88 | . | .
CC(C)C(C)(C#N)NC(=O)CSc1nnc(C(F)(F)F)n1C (centres undefined) | 2.0 | 101.5 | -0.7 | i | 0.95 | -10.8 | 108.0
Cn1cnnc1SCc1ccc(C(=O)N/N=C/c2cccs2)cc1 | 8.1 | 106.2 | . | i | 0.97 | . | .
CSc1c(-c2ccccn2)c(N)nn1C(=O)C1CC1 | . | 95.6 | . | i | 0.92 | . | .
Cc1cccc(Sc2nc(-c3ccccc3)ccc2C#N)c1 | -20.9 | 98.9 | -1.4 | i | 0.9 | . | .
